Bioassay records (PubChem)
T cruzi inh: T. cruzi replication inhibition; T. cruzi beta-gal in NIH3T3, luminescence, 90 h; inhibition, % (concentration not given with the values); actives 1.4% (n = 300,000);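 active means mean inhibition across valid replicates above about 55%, limit read from the data; inconclusive means mean below that limit but half or more replicates reach it; inactive means mean below it, under half of replicates reach it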;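 further: signal also drops with host cell toxicity which is not excluded here; 0% = plate median of DMSO wells and 100% = zero luminescence signal; higher percent means less beta-gal luminescence so fewer parasites; stock transfer was 50 nL into about 50 µL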
A1 inh: inhibitors of the anti-apoptotic protein A1, read as caspase activation. MEF A1-2A-BIM cells, Caspase-Glo 3/7 luminescence, 3 h; percent of clofoctol response, vehicle zero. caspase activation, % (no concentration beside the values). actives 0.066% (n = 330,000). AID 2462;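 active means over half of replicate activation scores above 10%, or exactly half above 10 with the replicate mean above 10; inconclusive means replicate mean below 10 yet half the replicates above 10; inactive means over half of replicates below 10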;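 further: wells of about 30 µL received 50 nL stock; many hits fall short of the cut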
UCH37 inh: human UCH37 deubiquitinating enzyme inhibition | Q9Y5K5 | purified proteasome/UCH37, Ub-AMC cleavage fluorescence | inhibition, % (test concentration not listed) | actives 0.33% (n = 330,000) | AID 588478;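 active means mean of two replicates above 20%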;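 further: 0% = compound-free wells with enzyme and 100% = wells lacking proteasome; stock transfer was 100 nL into about 20 µL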
Target sequence (Q9Y5K5 whole entry, looked up): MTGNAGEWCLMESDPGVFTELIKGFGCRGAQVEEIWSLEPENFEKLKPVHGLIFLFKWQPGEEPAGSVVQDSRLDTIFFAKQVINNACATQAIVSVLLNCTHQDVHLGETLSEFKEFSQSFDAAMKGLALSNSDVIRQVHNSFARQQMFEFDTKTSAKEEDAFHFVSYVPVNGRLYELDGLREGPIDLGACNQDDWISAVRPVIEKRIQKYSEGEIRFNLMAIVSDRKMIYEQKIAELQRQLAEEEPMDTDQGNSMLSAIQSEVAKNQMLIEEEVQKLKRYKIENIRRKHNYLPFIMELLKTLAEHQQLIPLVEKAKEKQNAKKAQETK
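Material: human UCH37 enzyme supplied as purified proteasome complex / Amount: 0.15 nM proteasome as dispensed / Buffer or medium: pH 7.4 Tris-HCl (50 mM) with ovalbumin, ATP-MgCl2, DTT / Times: preincubation 30 min, reaction 25 min, room temperature / Technique: AMC fluorescence from Ub-AMC cleavage, excitation 355 nm, emission 460 nm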
rRNA inh HTS: selective bacterial rRNA inhibition in E. coli | GFP signal change (wild-type ribosome), % (test concentration not listed) | actives 1.6% (n = 350,000) | E. coli WT GFP vs humanized-ribosome RFP mutants, fluorescence, 24 h; hits give low values; DMSO median 0, no signal -100 | AID 720706;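 active means significant combined selectivity score with lowered wild-type GFP, culture density cut under 30%, mutant RFP and density less affected; inactive means any of these conditions unmet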; further: one replicate is shown; some compounds called inactive have numbers as strong as hits
MLL AF4-AF9 inh: blocks AF4 peptide binding to human AF9. AID 651704. AlphaScreen, biotin-AF4 peptide binding to FLAG-AF9. P42568. actives 0.47% (n = 350,000). inhibition, % at 10 µM;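 active means every replicate reaching a set inhibition limit, whatever the replicate mean, cut at about 25% in these data; inconclusive means mean inhibition reaches that limit but some replicates miss it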;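 further: 0% = plate neutral control median and 100% = total signal loss; the record names both 10 and 1 µM as test concentration; the first replicate is given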
Target sequence (P42568 whole entry, looked up): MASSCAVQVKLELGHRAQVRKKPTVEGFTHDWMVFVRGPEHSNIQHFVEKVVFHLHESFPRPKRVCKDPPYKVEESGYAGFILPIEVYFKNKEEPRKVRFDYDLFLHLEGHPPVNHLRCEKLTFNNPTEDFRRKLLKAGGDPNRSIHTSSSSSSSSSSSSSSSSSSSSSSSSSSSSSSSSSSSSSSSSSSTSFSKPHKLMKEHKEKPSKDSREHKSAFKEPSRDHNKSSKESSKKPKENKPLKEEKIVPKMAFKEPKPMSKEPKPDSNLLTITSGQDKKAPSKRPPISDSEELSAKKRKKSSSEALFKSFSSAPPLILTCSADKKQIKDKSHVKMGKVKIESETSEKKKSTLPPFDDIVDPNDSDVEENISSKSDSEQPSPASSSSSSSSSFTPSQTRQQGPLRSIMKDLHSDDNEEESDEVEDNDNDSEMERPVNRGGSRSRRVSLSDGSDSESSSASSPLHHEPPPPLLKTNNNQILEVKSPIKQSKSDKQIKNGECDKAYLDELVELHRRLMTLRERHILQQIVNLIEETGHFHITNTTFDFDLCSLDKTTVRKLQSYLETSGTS
Ecoli growth: E. coli growth inhibition; Escherichia coli growth, OD600, 23 h; hits give low values; OD600 absorbance (concentration not given with the values); actives 0.21% (n = 330,000); AID 1053175;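 active means OD600 absorbance below the run mean of sample wells minus 3.6 SD, in any replicate, cut at about 0.56 in these data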;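 further: stock transfer was 300 nL into about 60 µL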
FGF22 binding: FGF22 (human) thermal shift binding | AID 651658 | calls only at 9.99 µM | actives 1.5% (n = 340,000) | Q9HCT0 | recombinant FGF22 thermal shift, SYPRO orange fluorescence; percent of sucrose octasulfate shift, DMSO zero;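 active means melting point raised past a set limit in the mean and every replicate; inconclusive means no clear call; three in four hits are not shown here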
Target sequence (Q9HCT0 whole entry, looked up): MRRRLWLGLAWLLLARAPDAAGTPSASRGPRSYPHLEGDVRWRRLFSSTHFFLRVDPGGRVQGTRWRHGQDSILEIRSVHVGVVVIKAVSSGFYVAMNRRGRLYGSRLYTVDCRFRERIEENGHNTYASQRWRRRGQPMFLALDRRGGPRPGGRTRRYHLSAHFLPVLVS
Beta apoptosis: blocks beta cell apoptosis | INS-1E cytokine-induced death, ATP luminescence, 48 h; percent of positive-control rescue, neutral wells zero | protection from apoptosis, % (concentration not given with the values) | actives 0.8% (n = 300,000) | AID 435005;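 active means all replicates at 75% or more, or half of them and the mean; inconclusive means half reach 75% but not the mean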;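 further: 0% = cytokine-treated negative control wells and 100% = positive control rescue; higher means more ATP so stronger rescue from cytokine killing; wells of about 40 µL received 100 nL stock; the first replicate is given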
rRNA inh HTS OD600: second read-out of rRNA inh HTS, no call of its own (marks repeat the call); OD600 change, %; measured here: OD600 growth;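 optical density of the mix in the first replicate; 0 = DMSO median and -100 = no signal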
rRNA inh HTS RFP: recorded beside rRNA inh HTS, whose call it bears; RFP signal change, %; measured here: RFP humanized mutant strains;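 first replicate; 0 = DMSO median and -100 = no signal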
Starred values were filed as active, the others as inactive; i = inactive; ? = inconclusive; . = no result given. This is a subset; count on the stated rates, not on these rows.

SMILES	T cruzi inh	A1 inh	UCH37 inh	rRNA inh HTS	rRNA inh HTS OD600	rRNA inh HTS RFP	MLL AF4-AF9 inh	Ecoli growth	FGF22 binding	Beta apoptosis
COc1ccc(CCN2C(=O)CCC2(C)C(=O)NC2CCCC2)cc1OC (centres undefined)	-13	-0.4	7.3	9	6	-2.8	-3.2	0.68	i	-3
COC(CNC(=O)C(C)n1nc(C)c2ccccc21)OC (centres undefined)	-14	1.0	0.9	20	10	6.0	-1.9	0.69	i	-11
Oc1c(Cl)cc(Cl)cc1C(C#Cc1ccccc1)N1CCOCC1 (centres undefined)	6	-0.4	-3.5	.	.	.	.	0.76	.	1
COc1ccc(Cc2nc(-c3cccs3)no2)cc1OC	-9	-0.2	4.4	-2	-15	-3.9	-5.6	0.72	i	-8
CC[N+](CC)(CC)C/C(N)=N/O	-30	-0.1	2.8	.	.	.	.	0.72	.	-4
CCN1CCCC1CN(Cc1cc2ccc(C)cc2[nH]c1=O)C(=S)Nc1cccc(OC)c1 (centres undefined)	5	0.7	4.5	.	.	.	.	0.69	.	-4
O=C(NC1CC1)c1sccc1-n1cccc1	-1	0.3	-1.5	.	.	.	.	0.74	.	-4
CC(C)C(=O)NC(NC1CCS(=O)(=O)C1)C(Cl)(Cl)Cl (centres undefined)	.	1.1	-3.3	11	9	2.7	-0.3	0.7	i	3
O=S1(=O)N=C(N2CCCc3ccccc32)c2ccccc21	-12	-0.5	-2.2	.	.	.	.	0.71	.	-9
CC(C)c1nc(CNC(=O)C2CCC(=O)N(CCc3ccc(Cl)cc3)C2)no1 (centres undefined)	2	0.1	-1.3	5	3	-0.6	0.8	0.65	i	-9
O=C(Cc1ccc(-n2c(=O)c3sccc3n(CC(=O)Nc3ccccc3F)c2=O)cc1)NCc1ccco1	4	-0.9	2.7	7	6	-1.2	-10	0.7	i	4
O=S(=O)(c1ccc(-c2n[nH]c(=S)o2)cc1)N1CCCC1	-5	1.1	4.9	6	-1	2.5	-0.7	0.67	i	-7
CC(NC(=O)c1cc(S(=O)(=O)N(C)C)ccc1Cl)C1CC2CCC1C2 (centres undefined)	15	-0.2	3.8	3	-6	0.3	-1.1	0.7	i	-3
CCOC(=O)C1(CC)NC(c2ccc(N(C)C)cc2)C2C(=O)N(C)C(=O)C21 (centres undefined)	-6	2.9	6.4	.	.	.	.	0.72	.	-1
Cn1cc(S(=O)(=O)NCc2ccco2)c(=O)n(C)c1=O	-18	0.2	5.8	3	20	-0.7	1.1	0.69	i	7
CCN(CC)CCC#CC(O)(c1ccccc1)C1CCCCC1 (centres undefined)	-4	-0.1	-1.3	-11	-14	11	3.1	0.69	i	-9
O=C(COC(=O)c1ccc[n+]([O-])c1)Nc1c(Br)cc([N+](=O)[O-])cc1Br	26	1.1	5.8	.	.	.	.	0.68	.	2
O=C1CN(C(=O)COC(=O)c2ccccc2NCc2ccco2)c2ccccc2N1	-7	-1.4	-235	.	.	.	.	0.72	.	-8
Cn1c(=O)cc(SCC(=O)N2CCN(c3ccccn3)CC2)c2ccccc21	15	0.2	4.4	.	.	.	.	0.68	.	1
Cc1cc(C)c(C)c(S(=O)(=O)Nc2ccc(OCC(=O)O)cc2)c1C	-12	0.2	4.0	-1	2	1.0	-0.8	0.74	i	2
Fc1cccc(Cl)c1Cn1nnc2c(-n3ccnc3)ncnc21	-26	0.7	3.4	.	.	.	.	0.74	.	-3
CCCCNC(=O)CC(=O)Nc1ccccc1C(=O)O	-5	-0.1	-0.8	.	.	.	.	0.71	.	-3
O=C(O)c1cc2c(ccc3ccccc32)oc1=O	14	-0.4	i	.	.	.	.	0.64	.	.
O=C(CCCCCn1nnc2ccccc2c1=O)Nc1ccccc1Cl	2	0.3	1.5	8	10	4.8	2.2	0.7	i	-3
N#CCCn1c(=O)n(CCC#N)c2ccccc21	5	-0.6	0.2	7	5	-1.3	-11	0.67	i	-2

Reprinted from the part before: 2 compounds, followed by the next part.
SMILES	T cruzi inh	A1 inh	UCH37 inh	rRNA inh HTS	rRNA inh HTS OD600	rRNA inh HTS RFP	MLL AF4-AF9 inh	Ecoli growth	FGF22 binding	Beta apoptosis
O=C(CCCCCn1nnc2ccccc2c1=O)Nc1ccccc1Cl	2	0.3	1.5	8	10	4.8	2.2	0.7	i	-3
N#CCCn1c(=O)n(CCC#N)c2ccccc21	5	-0.6	0.2	7	5	-1.3	-11	0.67	i	-2
CCOC(=O)C1=C(C)N(C[C@@H]2CC[C@@H](Cc3ccc(-c4ccccc4)cc3)O2)C(=O)NC1C1CC1 (some centres undefined)	.	.	0.1	6	4	3.8	-2.2	0.71	i	.
CC1C(C#N)=C(N)OC2=C1C(=O)CCC2 (centres undefined)	-21	0.9	0.6	.	.	.	.	0.78	.	-4
O=c1cnc2ccccc2n1Cc1ccccc1C(F)(F)F	0	-0.4	4.5	-2	-13	-0.9	0.9	0.7	i	-4
O=C(N/N=C\c1ccc([N+](=O)[O-])o1)c1cncc(Br)c1	58*	0.5	.	17	5	0.9	-6.5	.	i	.
CC(C)n1cnc2c(Nc3cccc(Cl)c3)nc(N(CCO)CCCO)nc21	?	0.1	3.2	.	.	.	.	.	.	1
O=C1C2C3C=CC(CNS(=O)(=O)c4ccccc4)(O3)C2C(=O)N1c1ccc(Cl)cc1 (centres undefined)	-13	-0.2	-0.4	2	5	-3.2	-1.3	0.67	i	-10
O=C(COC(=O)COc1ccc(Br)cc1)NC1CCCCCC1	.	0.5	2.6	.	.	.	-2.8	0.67	i	-2
CC(=O)N1CCCc2cc(S(=O)(=O)NCCC3=CCCCC3)ccc21	0	-0.8	54*	.	.	.	.	0.73	.	23
COc1ccc(CN2CCN(C(=O)c3c(-c4ccccc4)noc3C)CC2)cc1F	.	0.2	0.8	.	.	.	1.6	0.67	i	1
COCCn1c(SCC#N)nnc1-c1ccc(OC)cc1	-17	0.9	-1.7	.	.	.	.	0.64	.	-5
CCCC(=O)N1CC2(CCC)CN(C(=O)CCC)CC(CCC)(C1)C2=O	12	0.5	1.3	.	.	.	.	0.7	.	-5
Cc1ccccc1C(=O)NC(=S)Nc1ccc(S(=O)(=O)N2CCOCC2)cc1	3	1.4	2.1	.	.	.	.	0.66	.	1
CCOC(=O)c1ccc(NC(=S)NC(=O)c2nn(CC)cc2Br)cc1	7	-1.6	-0.1	2	4	-2.2	0.5	0.76	i	-8
COc1ccc(Oc2nc(-c3ccccc3)ncc2S(=O)(=O)c2ccccc2)cc1	22	0.5	4.1	.	.	.	.	0.82	.	-1
O=C(COc1cccnc1[N+](=O)[O-])c1c[nH]c2ccccc12	6	0.6	1.7	5	12	-5.4	-1.7	0.68	i	-7
Cc1ccc2nc(-c3ccc(NS(=O)(=O)c4ccc(F)cc4)cc3)sc2c1	4	-2.0	-275	.	.	.	.	0.68	.	4
O=c1cc(CSc2nnc(NC3CCCCC3)s2)nc2sccn12	8	-0.4	0.6	-12	-9	-4.8	0.0	0.69	i	.
CCc1ccc(NC(=O)CSc2nnc(CNC(=O)c3c(F)cccc3Cl)o2)cc1	-2	0.3	-1.0	.	.	.	.	0.69	.	1
NS(=O)(=O)OCC(Cc1ccccc1)N1C(=O)c2ccccc2C1=O (centres undefined)	8	-1.0	0.5	-5	5	0.0	1.0	0.72	i	.
CCOc1cc(C(=O)Nc2nnc(CC)s2)ccc1OCC(=O)N1CCOCC1	5	-0.5	2.2	.	.	.	.	0.77	.	-3
COc1ccccc1-c1cc(C(F)(F)F)nc(S(=O)(=O)CCCC(=O)O)n1	-17	-0.4	-32	.	.	.	.	0.71	.	-6
FC(F)(F)c1ccnc(NCc2ccc(Cl)cc2)n1	-5	0.3	0.7	0	-2	-2.3	-0.3	0.67	i	0
Cc1oc2cc(Br)c(O)c(Br)c2c1-c1ccccc1	-11	-0.1	4.5	.	.	.	.	0.68	.	1
O=C(O)c1cc(-c2ccc(/C=C3\NC(=O)N(c4ccc(Cl)cc4)C3=O)o2)ccc1Cl	-25	0.7	-25	-1	-4	11	2.7	0.68	.	-1
O=C(Oc1oc(-c2ccco2)nc1C=Nc1ccccc1)c1ccoc1	-21	0.7	3.8	12	6	-3.6	3.3	0.67	i	-2

Later entries
SMILES	T cruzi inh	A1 inh	UCH37 inh	rRNA inh HTS	rRNA inh HTS OD600	rRNA inh HTS RFP	MLL AF4-AF9 inh	Ecoli growth	FGF22 binding	Beta apoptosis
O=C(C1CCN(S(=O)(=O)c2ccccc2[N+](=O)[O-])CC1)N1CCOCC1	-12	0.1	2.5	-4	-5	-2.3	1.4	0.7	i	21
CCN(CC)CCC#CC1(O)c2ccccc2-c2ccccc21	-6	-0.3	2.4	9	7	0.3	-2.9	0.66	i	.
O=C(Cn1nc(C(=O)O)c2ccccc2c1=O)Nc1cccc(S(=O)(=O)N2CCCC2)c1	.	.	2.6	7	9	0.0	-0.6	0.64	i	.
CC(/C=N/n1c(-c2ccncc2)n[nH]c1=S)=C\c1ccco1	-1	0.3	.	-4	-2	5.3	1.2	.	i	0
CC(=O)Nc1ccc(C(=O)Nc2ccc(S(=O)(=O)N3CCCCC3)cc2)cc1	0	1.3	1.4	-3	2	-1.2	-20	0.67	i	1
O/N=C(/c1ccc(F)cc1)C1CC1c1c(F)cccc1Cl (centres undefined)	12	0.1	.	-59	-82	-20	3.9	.	i	0
Cc1ccc(C2Nc3ccc4ccccc4c3C3=C2C(=O)CC(C)(C)C3)o1 (centres undefined)	39	-0.6	-150	-29	-31	-13	11	0.76	i	.
COC(=O)Cc1c(OC)ccn(CCc2c[nH]c3ccccc23)c1=O	-10	0.5	4.4	2	3	1.8	-2.9	0.69	i	-2
O=C(NCCc1nnc2ccccn12)c1cccs1	-2	1.8	0.3	1	9	-2.1	0.7	0.69	i	-2
COc1ccccc1C(=O)NCC(=O)OCC(=O)c1ccc2c(c1)-c1ccccc1C2	-13	0.1	-2.8	.	.	.	.	0.71	.	-5
CC(C(=O)NCc1cccnc1)c1ccc([N+](=O)[O-])cc1 (centres undefined)	-7	0.6	3.7	-4	4	-2.7	1.7	0.62	i	-1
Cc1cc(NC(=O)CSc2nc3ccccc3n2CC(=O)N2CC(C)CC(C)C2)no1 (centres undefined)	4	0.5	0.3	.	.	.	.	0.73	.	-2
COc1ccc(OCC(=O)Nc2nc3ccccc3[nH]2)cc1	-7	-0.7	1.4	.	.	.	.	0.72	.	4
N#Cc1c(SCC(=O)Nc2nncs2)sc2c(O)cc(=O)[nH]c12	-8	0.1	.	9	10	1.8	-2.0	.	i	-2
O=C(COc1ccccc1)N(Cc1cccs1)C1CCS(=O)(=O)C1 (centres undefined)	-5	0.3	0.1	5	7	-0.7	-1.7	0.67	i	-9
CN1CCO/C1=C(\C(Cl)=C(Cl)Cl)[N+](=O)[O-]	-10	1.0	6.0	9	9	-2.1	-0.5	0.69	.	-6
O=C(NCCSc1ccccc1)c1ccc(CN2CCOCC2)cc1	-5	-1.7	7.9	4	2	-0.8	-3.6	0.65	i	3
